# Source: PubChem (Broad Institute)
# FGF22 binding – binders of human FGF22 protein, primary screen, FGF22 synaptogenesis inhibitor project, biophysical, thermal shift, single point; calls only at 9.99 µM; Fibroblast growth factor 22 (Homo sapiens), Q9HCT0; recombinant FGF22 thermal shift, SYPRO orange fluorescence; percent of sucrose octasulfate shift, DMSO zero; hit rate 1.5% among 340,000;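 active = melting point raised past a set limit in the mean and every replicate; inconclusive = no clear call; three in four hits are not shown here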
# Target sequence (Q9HCT0 whole entry, looked up): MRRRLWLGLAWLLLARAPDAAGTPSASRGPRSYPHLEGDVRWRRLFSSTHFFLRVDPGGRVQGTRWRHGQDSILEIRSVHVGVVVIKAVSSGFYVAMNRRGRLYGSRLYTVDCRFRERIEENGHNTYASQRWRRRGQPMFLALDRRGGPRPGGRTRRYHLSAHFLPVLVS
# T cruzi repl – inhibitors of intracellular T. cruzi growth, primary screen, luminescence, NIH3T3 host cells | T. cruzi beta-gal in NIH3T3, 90 h | inhibition, % (concentration not given with the values) | hit rate 1.4% among 300,000 | AID 1885, 2009;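 active = mean inhibition across valid replicates above about 55%, limit read from the data; inconclusive = mean below that limit but half or more replicates reach it; inactive = mean below it, under half of replicates reach it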;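 note: signal also drops with host cell toxicity which is not excluded here; 0% = plate median of DMSO wells and 100% = zero luminescence signal; higher percent means less beta-gal luminescence so fewer parasites; stock transfer was 50 nL into about 50 µL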
# rRNA inh HTS – reduced GFP signal of wild-type E. coli, primary screen, bacterial rRNA inhibitor project, GFP/RFP fluorescence, OD600, single point; E. coli WT GFP vs humanized-ribosome RFP mutants, 24 h; active compounds read low; DMSO median 0, no signal -100; GFP signal change (wild-type ribosome), % (concentration not given with the values); hit rate 1.6% among 350,000;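 active = significant combined selectivity score with lowered wild-type GFP, culture density cut under 30%, mutant RFP and density less affected; inactive = any of these conditions unmet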; note: one replicate is shown; some compounds called inactive have numbers as strong as hits
# ALR inh – inhibitors of human ALR sulfhydryl oxidase, primary screen, biochemical, H2O2 detection, HRP-luminol luminescence, single point; FAD-linked sulfhydryl oxidase ALR (Homo sapiens), P55789; purified ALR, DTT oxidation; inhibition, % (concentration not given with the values); hit rate 3.8% among 290,000;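 active = mean and each replicate at 75% or more; inconclusive = only one of the two met; inactive = neither met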;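 note: stock transfer was 7.5 nL into about 7.5 µL; 0% = neutral wells and 100% = wells with inactivated enzyme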
# Target sequence (P55789 whole entry, looked up): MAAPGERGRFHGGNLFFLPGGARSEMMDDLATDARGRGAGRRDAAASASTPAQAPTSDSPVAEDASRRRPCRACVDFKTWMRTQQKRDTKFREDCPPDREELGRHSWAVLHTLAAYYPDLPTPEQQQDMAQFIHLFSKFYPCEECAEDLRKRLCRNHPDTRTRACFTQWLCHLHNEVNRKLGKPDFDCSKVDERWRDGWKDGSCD
# RanGTP-Impb inh – inhibitors of RanGTP-importin-beta interaction, primary screen, biochemical, FRET, CFP-Ran, YFP-importin-beta, homogeneous. Ran GTPase (GTP-bound) - importin-beta complex. cell-free CFP-Ran/YFP-importin-beta FRET ratio. inhibition, % (test concentration not listed). hit rate 1.1% among 300,000;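 active = most replicates above 15%; inconclusive = exactly half above 15%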;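 note: 0% = DMSO wells and 100% = Ran loaded with GDP instead of GTP; wells of about 40 µL received 100 nL stock; the first replicate is given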
# Calb FLC – C. albicans growth inhibition with fluconazole, primary screen, CaCi-2 strain, Alamar Blue fluorescence; hit rate 0.57% among 300,000; growth inhibition, % (concentration not given with the values); C. albicans CaCi-2 (fluconazole-resistant clinical isolate) + fluconazole, 48 h;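 active = most replicates above 75%; inconclusive = exactly half above 75%; inactive = most below 75%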;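 note: all wells also contain fluconazole at 8 µg/ml as a sub-toxic cotreatment; 0% = median of DMSO wells and 100% = median of geldanamycin control wells; wells of about 8 µL received 7.5 nL stock; the first replicate is given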
# AF4-AF9 inh – inhibitors of AF4 peptide binding to AF9, primary screen, biochemical, AlphaScreen, biotin-AF4 peptide, FLAG-AF9, single point. Protein AF-9 (Homo sapiens), P42568. inhibition, % at 10 µM. hit rate 0.47% among 350,000;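 active = every replicate reaching a set inhibition limit, whatever the replicate mean, cut at about 25% in these data; inconclusive = mean inhibition reaches that limit but some replicates miss it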;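 note: 0% = plate neutral control median and 100% = total signal loss; the record names both 10 and 1 µM as test concentration; the first replicate is given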
# Target sequence (P42568 whole entry, looked up): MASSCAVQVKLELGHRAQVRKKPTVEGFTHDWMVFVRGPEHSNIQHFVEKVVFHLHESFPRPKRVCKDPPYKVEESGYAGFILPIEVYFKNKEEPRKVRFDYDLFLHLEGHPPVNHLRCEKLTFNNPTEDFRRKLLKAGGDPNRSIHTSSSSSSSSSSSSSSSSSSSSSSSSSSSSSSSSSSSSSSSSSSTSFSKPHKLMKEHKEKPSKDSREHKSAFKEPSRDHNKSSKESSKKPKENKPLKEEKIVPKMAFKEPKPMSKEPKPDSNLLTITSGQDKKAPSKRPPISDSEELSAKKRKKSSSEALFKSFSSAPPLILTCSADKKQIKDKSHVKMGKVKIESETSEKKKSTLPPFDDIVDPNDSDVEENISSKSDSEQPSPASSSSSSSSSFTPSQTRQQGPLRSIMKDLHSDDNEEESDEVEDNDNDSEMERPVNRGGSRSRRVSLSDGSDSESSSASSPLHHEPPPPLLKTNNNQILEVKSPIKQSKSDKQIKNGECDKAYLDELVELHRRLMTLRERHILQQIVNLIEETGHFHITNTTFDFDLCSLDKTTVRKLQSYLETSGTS
# Beta apoptosis – inhibitors of cytokine-induced beta cell apoptosis, primary screen, luminescence; INS-1E cytokine-induced death, ATP luminescence, 48 h; percent of positive-control rescue, neutral wells zero; protection from apoptosis, % (concentration not given with the values); hit rate 0.8% among 300,000; AID 435005, 2010;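 active = all replicates at 75% or more, or half of them and the mean; inconclusive = half reach 75% but not the mean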;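 note: 0% = cytokine-treated negative control wells and 100% = positive control rescue; higher means more ATP so stronger rescue from cytokine killing; wells of about 40 µL received 100 nL stock; the first replicate is given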
# rRNA inh HTS OD600 – second read-out of rRNA inh HTS, no call of its own (marks repeat the call); OD600 change, %; measured here: OD600 growth;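 optical density of the mix in the first replicate; 0 = DMSO median and -100 = no signal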
# rRNA inh HTS RFP – further read-out of rRNA inh HTS, marked with its call; RFP signal change, %; measured here: RFP humanized mutant strains;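 first replicate; 0 = DMSO median and -100 = no signal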
# * marks the source's active call; other numbers are inactive results; i = inactive; ? = inconclusive; nt = no result given.
SMILES,FGF22 binding,T cruzi repl,rRNA inh HTS,rRNA inh HTS OD600,rRNA inh HTS RFP,ALR inh,RanGTP-Impb inh,Calb FLC,AF4-AF9 inh,Beta apoptosis
CC1(C)OC(=O)N(CC(=O)Nc2cccc(C(F)(F)F)c2)C1(C)O (stereo not drawn),i,-1.3,1.2,14.1,1.6,-19.9,1.2,-2.6,-2.0,-6.3
Cn1cc(/C=N\NC(=O)c2cccs2)c2ccccc21,i,-3.7,-4.5,-6.6,-1.4,-1.2,-2.6,10.0,-0.9,2.2
COc1ccc(C(=O)NNC(=O)CSc2nnc(COc3ccccc3OC)n2C)cc1,nt,-13.4,nt,nt,nt,3.9,2.5,-3.6,nt,-3.8
Cc1n[nH]c(=O)nc1NCCN(C)C,nt,-9.2,nt,nt,nt,-5.3,1.9,-3.7,nt,-6.5
CC1C2=C(CC(C)(C)CC2=O)NC2=C1C(=O)CC(C)(C)C2,i,-5.0,18.2,10.3,0.1,-5.9,135.7*,0.5,-1.9,-11.8
Cc1[nH]c(=O)c(C#N)c(C)c1CCC(=O)N(C)CC(=O)Nc1ccc(Cl)c(Cl)c1,i,4.5,1.1,6.7,-1.2,-2.0,1.0,1.7,-3.3,-6.2
Cc1occc1C(=O)NNC(=O)c1ccccc1C(=O)O,i,-4.7,13.6,11.8,1.7,-0.9,1.8,-1.9,-1.9,nt
C=CCN(CC=C)S(=O)(=O)c1ccc(F)cc1,nt,5.2,nt,nt,nt,-44.6,0.8,-2.9,nt,-3.1
COc1ccc(Cl)cc1-c1nc(N)nc(NC2CCCCC2)n1,i,0.4,10.6,12.3,4.9,0.5,-2.5,-14.6,-4.5,-9.4
COC(=O)c1ccccc1N=Nc1c(C)[nH][nH]c1=O,i,2.7,10.1,7.0,-0.9,-0.9,-4.8,-0.9,0.4,-2.7
COc1cc(C(=O)O)nc(OC)n1,i,1.9,15.7,12.3,0.3,1.2,?,1.0,1.2,-0.3
CCCCNC(=O)c1onc(CSc2cc(C)cc(C)c2)c1C(=O)NCCCC,i,24.1,9.2,-10.7,-0.4,-6.9,-2.1,-9.0,-2.1,-2.4
Cc1ccc2nccc(C(=O)N3CCCC(Nc4ccc(F)cc4)C3)c2c1 (stereo not drawn),i,14.8,-15.2,-1.1,1.6,98.4*,-2.0,-1.2,1.8,-0.5
O=C1NCCN1C(=O)c1ccco1,nt,-14.6,nt,nt,nt,-4.7,5.1,-17.0,nt,1.5
COc1ccc(Oc2nc(C)cc(C)c2S(C)(=O)=O)cc1,nt,-2.2,nt,nt,nt,7.6,-0.9,-3.5,nt,-2.7
CCOCCCNC(=S)NCCCNc1nc2cc3c(cc2cc1C#N)OCO3,i,-9.2,23.4,3.1,5.8,-13.7,55.5*,-15.7,1.4,nt
CCn1c(COc2cccc(C)c2C)nnc1SCC(=O)N1CCN(c2ccc(OC)cc2)CC1,nt,23.3,nt,nt,nt,8.4,-0.3,23.2,nt,nt
COC(=O)c1cc(NC(=O)c2cc(C(C)(C)C)nn2Cc2ccc(F)cc2)ccc1N1CCOCC1,i,34.9,-6.9,-8.7,-1.4,1.9,-2.6,2.8,1.6,25.0
Cc1cccn2c(=O)c3cc(C(=O)N4CCCCC4C)sc3nc12 (stereo not drawn),i,nt,-7.7,-2.3,0.0,nt,nt,nt,0.6,-4.6
O=C(CCl)Nc1cc(S(=O)(=O)N2CCOCC2)ccc1N1CCOCC1,i,-16.4,11.1,16.9,2.3,1.5,-0.4,-1.1,1.3,nt
Cc1cccc(-c2n[nH]c(=S)n2C)c1,i,-3.5,13.1,-9.5,-0.9,5.2,-4.6,-2.9,-6.1,-0.5
Cc1cccc(NC(=O)CCC(=O)N/N=C/c2ccncc2)c1,i,0.6,nt,nt,nt,-8.8,-2.6,-6.7,3.0,-6.1
C/C(=N\NC(=O)c1cc(O)ccc1O)c1cccc(NC(=O)c2ccc(Cl)cc2)c1,i,-5.1,-25.8*,-14.4*,3.6*,63.8,-0.3,-4.5,-1.8,4.3
Cc1cc(C)n2c(SCC(=O)N(C)C3CCS(=O)(=O)C3)nnc2n1 (stereo not drawn),nt,8.6,nt,nt,nt,-2.2,-1.1,1.0,nt,-4.7
CC(Oc1ccc(Cl)cc1Cl)C(=O)Nc1ccc(S(=O)(=O)Nc2cnc3ccccc3n2)cc1 (stereo not drawn),nt,13.1,nt,nt,nt,17.7,29.9,8.0,nt,-5.3

# (more compounds)
SMILES,FGF22 binding,T cruzi repl,rRNA inh HTS,rRNA inh HTS OD600,rRNA inh HTS RFP,ALR inh,RanGTP-Impb inh,Calb FLC,AF4-AF9 inh,Beta apoptosis
O=S(=O)(Nc1ccc2c(c1)OCCO2)c1ccc(Br)s1,i,-3.4,-21.1,-23.9,-7.6,5.6,1.3,-3.4,-17.8,10.3
CCOC(=O)C1=NNC2(c3ccc(Cl)cc3)C(=O)N(c3cc(C)cc(C)c3)C(=O)C12 (stereo not drawn),nt,?,nt,nt,nt,nt,0.0,4.2,nt,-10.6
COc1cc(NC(=O)c2ccc(S(=O)(=O)N(C)C)cc2)cc(OC)c1OC,i,-18.0,-11.6,-0.1,1.8,-5.4,-0.1,-8.7,-53.2,-3.7
COc1ccc(-c2oc3ccccc3c2C#CC(C)(C)O)cc1,i,nt,-7.6,5.9,-6.3,-8.7,nt,nt,7.2,3.3
C=CCNC(=O)c1cc2c(=O)c3ccccc3oc2nc1C,i,-12.2,6.4,12.7,1.8,12.1,-4.0,11.0,-1.9,nt
Cc1c(C)n(C)c2ccc(C(=O)NCCCN(C)C3CCCCC3)cc12,i,18.6,-0.9,-0.3,-1.4,7.0,0.8,-7.0,18.5,0.2
O=C(NC1CCCN(c2ccc(C(F)(F)F)cn2)C1)c1cc(Cl)ccc1F (stereo not drawn),i,21.7,8.8,3.5,2.4,-15.6,0.2,-5.8,-3.0,nt
CC[C@@]12C(=O)N(c3ccc(C)cc3)C(=O)N1[C@H](c1ccc(Br)cc1)[C@@H]1C(=O)N(C(C)(C)C)C(=O)[C@@H]12,i,10.8,9.5,0.7,1.4,-8.6,7.1,10.1,0.7,2.8
CC(=O)Nc1ccc2[nH]c3ccccc3c2c1,nt,2.7,nt,nt,nt,5.7,0.4,-4.4,nt,-1.4
CCc1ccc([C@@H]2CC=C(C(=O)O)[C@H](c3ccc(Cl)cc3)N2S(=O)(=O)c2ccc(C)cc2)cc1,i,nt,-36.8,-51.3,7.1,8.4,nt,nt,-1.7,-11.7
Cc1cc(=O)oc2c3c(cc(OCC(=O)N4CCC(C(=O)O)CC4)c12)OC(C)(C)CC3,i,8.2,nt,nt,nt,4.0,-2.0,-0.4,8.5,nt
CC1CC(C)CN(C(=O)COC(=O)c2ccc3c(c2)OCCO3)C1 (stereo not drawn),i,nt,-14.2,-16.1,1.3,6.4,nt,nt,-6.8,1.1
O=C(NCCO)/C(=C\c1cccs1)NC(=O)c1cccs1,nt,-3.1,nt,nt,nt,-5.2,0.9,-2.6,nt,-7.2
COc1ccc(S(=O)(=O)N2CCC(C(=O)NCCN3CCOCC3)CC2)cc1C,i,1.4,2.0,-1.2,1.1,-27.6,2.7,0.3,-0.6,nt
CN(C)C(CNC(=O)Cc1cccc(C(F)(F)F)c1)c1ccccc1 (stereo not drawn),i,3.5,5.0,3.4,-1.8,7.2,?,-24.6,-2.8,-8.4
CCCCCCCCCCOC(=O)c1csc2nnsc12,nt,3.1,15.8,8.6,0.1,-0.9,-0.8,-6.9,nt,1.2
CC(C)OCCCNC(=O)CCSc1ccc(Cl)cc1,nt,-14.5,nt,nt,nt,1.2,26.5*,6.1,nt,-8.5
CC1(C)Cc2c(sc3c2C2=NCCN2C=N3)CO1,nt,0.4,nt,nt,nt,nt,0.0,4.0,nt,-5.8
O=C(Nc1cc(Br)ccc1O)C1CC(c2c(F)cccc2Cl)=NO1 (stereo not drawn),i,-13.4,-36.0*,-17.4*,-1.4*,-1.1,-14.9,?,-2.1,-4.4
CCOC(=O)C1CCN(Cc2oc(CO)cc(=O)c2O)CC1,nt,-8.7,nt,nt,nt,90.8*,2.2,-11.7,nt,2.3
Cc1ccccc1Nc1nc(N)nc(CSCc2c(C)noc2C)n1,nt,-8.4,nt,nt,nt,-8.7,6.2,2.6,nt,-0.7
CCOC(=O)NN1C(=O)c2ccccc2NC1c1ccccc1F (stereo not drawn),i,2.2,8.3,0.7,-1.9,3.0,-0.3,-13.2,-0.9,-2.8
COc1ccc(S(=O)(=O)N(C)CC(=O)Nc2ccccc2C(F)(F)F)cc1OC,nt,-1.0,nt,nt,nt,3.3,9.3,-4.5,nt,2.1
O=C(Cc1ccc(NC2=NC3CS(=O)(=O)CC3S2)cc1)N1CCN(c2ccc(F)cc2)CC1 (stereo not drawn),i,-27.2,6.1,12.0,1.1,31.2,11.4,-1.2,?,-1.0
Cc1[nH][nH]c(=O)c1C(c1ccccc1[N+](=O)[O-])C(C#N)C#N (stereo not drawn),i,-4.0,7.8,6.4,0.9,1.3,1.7,-5.8,-6.3,-6.2

# (continued)
SMILES,FGF22 binding,T cruzi repl,rRNA inh HTS,rRNA inh HTS OD600,rRNA inh HTS RFP,ALR inh,RanGTP-Impb inh,Calb FLC,AF4-AF9 inh,Beta apoptosis
O=C(NNC(=O)c1cccs1)c1csc(N2CCOCC2)n1,i,-12.1,8.2,11.9,3.2,6.2,6.9,5.9,-5.5,-5.4
Cc1cc(C(=O)OCC(=O)Nc2ccc(S(=O)(=O)N3CCOCC3)cc2)c(C)o1,nt,1.7,nt,nt,nt,1.4,?,-7.0,nt,-5.3
CN(c1ccccc1)S(=O)(=O)c1nnc(NC(=O)C2CCCCC2)s1,i,2.6,2.9,7.8,-1.4,-12.7,1.7,-1.1,-3.6,6.3
COc1cccc(/C=C2\SC(=S)N(CCC(=O)Nc3ccc(O)cc3)C2=O)c1,i,12.0,3.2,4.2,-1.8,-8.1,-2.0,-7.6,3.5,nt
COc1cccc(C(C(=O)NCC2CCCO2)N(C(=O)Cn2nnc3ccccc32)c2ccc(NC(C)=O)cc2)c1OC (stereo not drawn),i,-6.2,4.1,12.8,-0.9,9.9,6.6,5.3,-0.9,-4.2
O=C(/C=C/c1ccc(Cl)cc1)N(Cc1cccs1)C1CCS(=O)(=O)C1 (stereo not drawn),i,17.0,-20.4,-14.8,-4.5,-2.2,-2.6,13.8,nt,-4.2
O=C(CN1CCN(S(=O)(=O)c2ccccc2)CC1)Nc1ccc(Cl)cn1,i,-3.9,-12.3,-4.6,-2.4,0.6,-0.3,1.3,2.2,-0.6
CN(CC1COc2ccccc2O1)C(=O)c1cccc(S(=O)(=O)N2CCCC2)c1 (stereo not drawn),i,nt,-1.3,-7.1,2.1,-8.9,nt,nt,-1.1,-3.1

# Some of the compounds tested; count on the stated rates, not on these rows.
